MITF inh: MITF inhibition; TRPM1 promoter luciferase, luminescence, 24 h; inhibition, % (no concentration beside the values); hit rate 0.28% among 37,000;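 active = most replicates at 85% or more, or half of them and the mean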;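 also: human melanocyte line stably carrying TRPM1 promoter luciferase reporter; 0% = vehicle wells and 100% = a positive control; the first replicate is given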
Shh pathway inh: blocks Sonic Hedgehog signaling | Shh-LIGHT2 Gli-luciferase reporter, 30 h | inhibition, % (test concentration not listed) | hit rate 2.1% among 22,000;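 active = replicate mean of 65% or more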;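 also: pathway switched on by Shh-conditioned medium diluted 1 in 25 in low serum; 100 nL library stock added to about 40 µL; 0% = median of neutral wells and 100% = positive control level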
PD-1 reverse act: reversal of PD-1 mediated T-cell inhibition; primary human CD4 T cells, PD-L1 beads, CellTiter-Glo 96 h; 29,000 tested, under 10 active; AID 2316; activation, % (no concentration beside the values);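 active = replicate mean of 50% or more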;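 also: 0% = median vehicle wells and 100% = positive control; 100 nL library stock added to about 50 µL; numbers are from one replicate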
YB-1 expression: YB-1 expression inhibition; hit rate 0.37% among 30,000; delta delta Cp (YB-1 minus CDIP) (no concentration beside the values); U2OS, qRT-PCR YB-1 vs CDIP delta delta Cp, 16 h; hits give high values; zero = DMSO, each unit about twofold;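 active = delta delta Cp rounded down to an integer at or above 3, about 3 SD of DMSO wells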;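 also: higher means less YB-1 transcript or more CDIP transcript relative to DMSO; stock transfer was 100 nL into about 100 µL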
The depositor's hits bear a star; . = not tested or not shown. Only part of the results is shown; the hit share may differ from the screen's.

SMILES | MITF inh | Shh pathway inh | PD-1 reverse act | YB-1 expression
CC(C)NC(=O)N(C)C[C@H]1Oc2ccc(NC(=O)C3CC3)cc2C(=O)N([C@H](C)CO)C[C@H]1C | 3 | . | 2.3 | 0.3
COc1ccccc1C1CC(c2ccc(C)cc2)=NN1C(=O)CCC(=O)O (stereo unspecified) | 28 | . | -4.6 | .
C/C(=N\O)C12CC3(C)CC(C)(CC(C)(C3)C1)C2 | -17 | -20 | -2.2 | -0.05
C=Cc1cncc2c(=O)n3c(cc12)-c1[nH]c2ccccc2c1CC3 | 1 | 31 | 1.6 | 0.0018
CN=C(NC#N)NCCSCc1nc[nH]c1C | 15 | -9 | . | 0.23
COCCn1c(-c2ccccc2)nc(=S)c2c1CC(C)(C)OC2 | -10 | -27 | -0.8 | -0.041
CCOC(=O)CSc1n[nH]c(-c2ccc(Cl)cc2)n1 | -54 | . | -0.5 | .
CC(C)NC(=O)Nc1ccc2c(c1)C(=O)N([C@H](C)CO)C[C@H](C)[C@H](CN(C)C(=O)Nc1cccc3ccccc13)OCCCC[C@@H](C)O2 | 7 | -33 | 1.9 | -0.12
C[C@@H]1CN([C@@H](C)CO)C(=O)c2cc(NC(=O)Nc3ccc4c(c3)OCO4)ccc2O[C@@H]1CN(C)C(=O)Nc1ccc(F)cc1 | 3 | 35 | 1.0 | 0.14
C[C@@H]1CN([C@@H](C)CO)C(=O)c2cccc(NS(C)(=O)=O)c2O[C@H]1CN(C)Cc1ccc(C(=O)O)cc1 | -2 | -9 | 0.7 | 0.047
COc1ccc(NC(=O)Nc2ccc3c(c2)C(=O)N([C@@H](C)CO)C[C@H](C)[C@H](CN(C)Cc2ccc(C(=O)O)cc2)O3)cc1 | 5 | -4 | 0.3 | 0.019
C[C@@H]1CN([C@H](C)CO)C(=O)Cc2cc(NS(=O)(=O)c3ccccc3)ccc2O[C@H]1CN(C)C(=O)Nc1cccc2ccccc12 | 0 | -23 | -0.3 | 0.13
C[C@@H]1CN([C@H](C)CO)C(=O)c2cccc(NC(=O)c3cnccn3)c2O[C@H]1CN(C)Cc1ccc(Oc2ccccc2)cc1 | 0 | -11 | -1.7 | -0.19
CC1(C)CC(=O)C2=C(C1)Nc1ccccc1N(C(=O)C(F)(F)F)C2c1ccc(Cl)cc1Cl (stereo unspecified) | 25 | -11 | -0.4 | -0.094
C[C@H]1CN([C@@H](C)CO)C(=O)c2cccc(NS(C)(=O)=O)c2O[C@H]1CN(C)Cc1ccc(-c2ccccc2)cc1 | 1 | 13 | . | -0.039
Cc1noc(C)c1NC(=O)Nc1ccc2c(c1)C(=O)N([C@H](C)CO)C[C@H](C)[C@H](CN(C)Cc1ccc3c(c1)OCO3)OCCCC[C@@H](C)O2 | -3 | -1 | 0.5 | 0.078
C[C@H](CO)N1C[C@H](C)[C@H](CN(C)S(=O)(=O)c2cn(C)cn2)Oc2ccc(NS(=O)(=O)c3cn(C)cn3)cc2C1=O | 2 | -4 | 1.3 | -0.021
C[C@H]1CN([C@@H](C)CO)C(=O)Cc2cc(NC(=O)c3ccncc3)ccc2O[C@@H]1CN(C)Cc1ccc(Cl)c(Cl)c1 | -3 | 8 | 0.5 | 0.27
C[C@H](CO)N1C[C@H](C)[C@H](CN(C)CC2CCCCC2)Oc2ccc(NS(=O)(=O)c3cn(C)cn3)cc2C1=O | 3 | . | 1.2 | -0.046
C[C@@H]1CN([C@@H](C)CO)C(=O)c2cccc(NC(=O)c3ccncc3)c2O[C@H]1CN(C)C(=O)Nc1cccc2ccccc12 | 7 | -36 | . | 0.05
COc1ccc(/C=C/c2cc(OC)cc3c2CCC(C)(C)O3)cc1 | -14 | 14 | -1.2 | 0.61
C[C@H](CO)N1C[C@H](C)[C@H](CN(C)Cc2ccc(Cl)c(Cl)c2)Oc2ccc(NC(=O)Cc3cn(C)c4ccccc34)cc2C1=O | 39 | -21 | -2.2 | -0.24
C[C@H]1CN([C@@H](C)CO)C(=O)Cc2cc(NC(=O)C3CC3)ccc2O[C@H]1CN(C)C(=O)Nc1ccccc1 | -12 | -13 | 0.1 | 0.18
C[C@H]1CN([C@@H](C)CO)C(=O)c2cc(N(C)C)ccc2O[C@@H]1CN(C)S(=O)(=O)c1cccs1 | 6 | -7 | 0.1 | -0.082
C[C@H](CO)N1C[C@H](C)[C@H](CN(C)C(=O)Nc2ccccc2)Oc2ccc(NS(=O)(=O)c3ccccc3)cc2C1=O | -18 | -22 | -2.9 | 0.35

Fetched by compound from the entries so far (4):
SMILES | MITF inh | Shh pathway inh | PD-1 reverse act | YB-1 expression
COc1ccccc1C1CC(c2ccc(C)cc2)=NN1C(=O)CCC(=O)O (stereo unspecified) | 28 | . | -4.6 | .
C[C@H]1CN([C@@H](C)CO)C(=O)c2cccc(NS(C)(=O)=O)c2O[C@H]1CN(C)Cc1ccc(-c2ccccc2)cc1 | 1 | 13 | . | -0.039
CC1(C)CC(=O)C2=C(C1)Nc1ccccc1N(C(=O)C(F)(F)F)C2c1ccc(Cl)cc1Cl (stereo unspecified) | 25 | -11 | -0.4 | -0.094
C[C@@H]1CN([C@H](C)CO)C(=O)c2cccc(NC(=O)c3cnccn3)c2O[C@H]1CN(C)Cc1ccc(Oc2ccccc2)cc1 | 0 | -11 | -1.7 | -0.19

Next part.
SMILES | MITF inh | Shh pathway inh | PD-1 reverse act | YB-1 expression
C=CCn1c(-c2ccccc2)n[nH]c1=S | 0 | 3 | 0.0 | 0.32
Cc1ccc(S(=O)(=O)N(C)C[C@H]2Oc3ccc(NS(=O)(=O)c4ccccc4)cc3CC(=O)N([C@H](C)CO)C[C@H]2C)cc1 | -3 | 15 | . | -0.015
C[C@@H]1CN([C@@H](C)CO)C(=O)Cc2cc(NS(=O)(=O)c3ccc(F)cc3)ccc2O[C@@H]1CN(C)Cc1ccncc1 | -5 | -12 | . | 0.13
C[C@@H]1CN([C@H](C)CO)C(=O)c2cccc(NC(=O)c3ccc(-c4nccs4)cc3)c2O[C@H]1CN(C)Cc1ccc(C(F)(F)F)cc1 | 52 | 24 | . | 0.2
COc1ccc(OC)c(S(=O)(=O)N2CCC(C(=O)Nc3ccc4c(c3)OCCO4)CC2)c1 | -16 | . | -0.4 | .
CC(C)(C)NS(=O)(=O)c1ccc(NC(=O)COc2ccc3ccccc3c2Br)cc1 | 26 | . | -1.0 | .
O=C(O)CCS(=O)(=O)c1cccc2cccnc12 | -1 | . | 2.1 | .
COc1ccc(NC(=O)N(C)C[C@@H]2Oc3c(NC(=O)Nc4ccc5c(c4)OCO5)cccc3C(=O)N([C@@H](C)CO)C[C@@H]2C)cc1 | -35 | -26 | . | -0.086
CN1CCN(C(=O)c2ccccc2NC(=O)CCN2C(=O)c3ccccc3C2=O)CC1 | -1 | . | 3.7 | .
C[C@@H]1CN([C@H](C)CO)C(=O)c2cccc(NC(=O)c3ccc(-c4nccs4)cc3)c2O[C@H]1CN(C)S(=O)(=O)c1ccc(Cl)cc1 | 8 | 76* | . | -0.11
CC(=O)NCCOc1ccccc1Cl | -12 | -5 | 1.0 | 0.069
CC1(C)CC(=O)C2=C(C1)OC(N)=C(C#N)C21C(=O)N(CO)c2ccccc21 (stereo unspecified) | -10 | -31 | -0.5 | -0.11
CC(C)=CCC/C(C)=C/CC/C(C)=C/CSc1ncn[nH]1 | -1 | 41 | -1.4 | -0.51
C[C@@H]1CN([C@@H](C)CO)C(=O)c2cc(N(C)C)ccc2O[C@H]1CN(C)C(=O)Nc1ccc2c(c1)OCO2 | -5 | 32 | 1.2 | -0.6
CC(C)NC(=O)Nc1ccc2c(c1)C(=O)N([C@H](C)CO)C[C@H](C)[C@H](CN(C)S(=O)(=O)c1ccc(Cl)cc1)O2 | -2 | -27 | 0.5 | 0.0078
Cc1nnc(SCC(=O)Nc2cccc(C(F)(F)F)c2)s1 | -16 | . | 3.5 | .
CCOC(=O)CSc1n[nH]c(=S)s1 | -6 | -20 | 0.7 | 0.18
C[C@@H]1CCCCO[C@H](CN(C)Cc2ccc(C(=O)O)cc2)[C@@H](C)CN([C@H](C)CO)C(=O)c2cc(NS(C)(=O)=O)ccc2O1 | 3 | -13 | . | 0.24
C[C@@H]1CN([C@@H](C)CO)C(=O)c2cc(NC(=O)CCN3CCOCC3)ccc2O[C@@H]1CN(C)Cc1ccncc1 | -3 | . | 1.3 | 0.32
O=C(NCCNc1ncc(C(F)(F)F)cc1Cl)C(F)(F)Sc1ccccc1 | 6 | -23 | -0.1 | -0.064
COc1cc(C2c3cc(O[C@@H]4O[C@H](CO)[C@@H](O)[C@H](O)[C@H]4O)c(OC)cc3CC(CO)C2CO)ccc1O (stereo partly specified) | 8 | -16 | 1.4 | -0.3
C[C@@H]1CN([C@H](C)CO)C(=O)c2cccc(NS(=O)(=O)c3ccc(F)cc3)c2O[C@@H]1CN(C)C(=O)Nc1ccc2c(c1)OCO2 | 4 | -2 | -0.3 | 0.011
C[C@@H]1CN([C@H](C)CO)C(=O)Cc2cc(NC(=O)CCC(F)(F)F)ccc2O[C@@H]1CN(C)Cc1ccc(C(F)(F)F)cc1 | -15 | -42 | -0.4 | -0.061
COc1ccc(NC(=O)N(C)C[C@@H]2Oc3ccc(NC(=O)NC4CCCCC4)cc3CC(=O)N([C@H](C)CO)C[C@H]2C)cc1 | 9 | 0 | 1.5 | 0.28
CSc1cccc(NC(=O)CSc2ncn(-c3ccccc3)n2)c1 | 0 | . | 1.6 | .

An excerpt of these results, as comma-separated lines.
structure,MITF inh,Shh pathway inh,PD-1 reverse act,YB-1 expression
CSc1cccc(NC(=O)CSc2ncn(-c3ccccc3)n2)c1,0,.,1.6,.
Cc1noc(C)c1NC(=O)Nc1ccc2c(c1)C(=O)N([C@H](C)CO)C[C@H](C)[C@H](CN(C)Cc1ccc3c(c1)OCO3)OCCCC[C@@H](C)O2,-3,-1,0.5,0.078
CN=C(NC#N)NCCSCc1nc[nH]c1C,15,-9,.,0.23

Further records:
SMILES | MITF inh | Shh pathway inh | PD-1 reverse act | YB-1 expression
CCc1ccccc1NC(=O)CSc1nc2cc(C(F)(F)F)ccc2s1 | -6 | . | -0.6 | .
C[C@@H]1CN([C@H](C)CO)C(=O)c2cccc(NC(=O)c3cnccn3)c2O[C@H]1CN(C)C | -12 | 0 | 3.2 | 0.23
COc1ccccc1N(CC(=O)Nc1ccc(F)c(F)c1)S(C)(=O)=O | -19 | . | 1.4 | .
Cc1ccc(S(=O)(=O)Nc2ccc3c(c2)CC(=O)N([C@H](C)CO)C[C@@H](C)[C@H](CN(C)C)O3)cc1 | -1 | 18 | 0.3 | 0.0042
CCOc1ccc(NC(=O)CSc2nccc(C)n2)cc1 | 5 | . | 1.5 | .
Cc1noc(C)c1S(=O)(=O)Nc1ccc2c(c1)C(=O)N([C@@H](C)CO)C[C@@H](C)[C@@H](CN(C)Cc1ccc(C(F)(F)F)cc1)O2 | 12 | . | . | -0.061
C[C@@H]1CN([C@H](C)CO)C(=O)c2cc(NS(=O)(=O)c3ccccc3)ccc2O[C@H]1CN(C)Cc1ccc(C(=O)Nc2ccccc2N)cc1 | 3 | . | -2.6 | -0.12
CCN1CCN(c2ccc(NC(=O)/C=C/c3ccccc3)cc2)CC1 | -17 | -12 | 0.8 | -0.3
CN1CCN(C(=O)CCc2nc(-c3ccc(Cl)cc3)no2)CC1 | -25 | . | -0.1 | .
C[C@@H]1CN([C@@H](C)CO)C(=O)c2cc(NS(=O)(=O)c3ccc(Cl)cc3)ccc2O[C@H]1CN(C)Cc1ccc(C(F)(F)F)cc1 | 17 | . | -1.5 | 0.36
C[C@H]1CN([C@@H](C)CO)C(=O)c2cc(NC(=O)C3CCCCC3)ccc2O[C@H]1CN(C)C(=O)Nc1ccccc1 | -18 | . | -0.8 | -0.15
COc1ccccc1-c1nnc(SCC(=O)c2ccc(Cl)cc2)n1-c1ccccc1 | 13 | . | -0.8 | .
C[C@@H]1CN([C@H](C)CO)C(=O)Cc2cc(N(C)C)ccc2O[C@H]1CN(C)Cc1ccc(Oc2ccccc2)cc1 | 6 | -13 | -3.9 | 0.25
COC(=O)c1ccccc1S(=O)(=O)/C(C#N)=C/Nc1nc(C)cc(C)n1 | 16 | . | -0.2 | -0.8
C[C@H]1CN([C@@H](C)CO)C(=O)c2cccc(NC(=O)NC3CCCCC3)c2O[C@H]1CN(C)Cc1ccc(Oc2ccccc2)cc1 | 6 | 9 | -2.2 | 0.31
O=C(COc1cccc(C(F)(F)F)c1)NCc1cccnc1 | 1 | . | 1.6 | .
C[C@H](CO)N1C[C@H](C)[C@H](CN(C)Cc2ccc(C(F)(F)F)cc2)Oc2ccc(NC(=O)CCCCCC(=O)Nc3ccccc3N)cc2C1=O | 7 | . | 0.1 | -0.14
C[C@H]1CN([C@@H](C)CO)C(=O)c2cc(NC(=O)Cc3cn(C)c4ccccc34)ccc2O[C@@H]1CN(C)Cc1ccc(-c2ccccc2)cc1 | 18 | 5 | -2.4 | 0.27
Cc1ccc(S(=O)(=O)NC2(C(=O)O)CCCCC2)cc1 | 1 | . | 1.8 | .
COC(=O)C(Cc1ccccc1)NC(=O)c1ccccc1 (stereo unspecified) | 0 | -27 | -2.4 | 0.0055
Cc1noc(C)c1NC(=O)N(C)C[C@@H]1Oc2ccc(NC(=O)CCC(F)(F)F)cc2C(=O)N([C@@H](C)CO)C[C@@H]1C | -18 | . | 1.3 | -0.46
C[C@]1(O)CC[C@@H]2C(C(=O)O)=CO[C@@H](O[C@@H]3O[C@H](COC(=O)c4ccc(O)cc4)[C@@H](O)[C@H](O)[C@H]3O)[C@@H]21 | -5 | -26 | 1.5 | 0.46
